TRPML1 blocker: inhibitors of human TRPML1 channel. hit rate 0.02% among 390,000. TRPML1-inducible cells, Ca2+ dye fluorescence, FDSS; hits give low values; inhibition of EC80 agonist-evoked calcium signal. AID 624415. Q9GZU1. activity change, negative = inhibition, % (concentration not given with the values); in the data active means activity change below about -50%; inconclusive means about -30% to -50%; inactive means above about -30%;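 further: stimulus is agonist 54-4 at its EC80 concentration; on the % scale 0 is the no-effect control and ±100 the full control effect; compound concentration not given in the record; the text of the record puts the active cut at -80%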
Target sequence (Q9GZU1 whole entry, looked up): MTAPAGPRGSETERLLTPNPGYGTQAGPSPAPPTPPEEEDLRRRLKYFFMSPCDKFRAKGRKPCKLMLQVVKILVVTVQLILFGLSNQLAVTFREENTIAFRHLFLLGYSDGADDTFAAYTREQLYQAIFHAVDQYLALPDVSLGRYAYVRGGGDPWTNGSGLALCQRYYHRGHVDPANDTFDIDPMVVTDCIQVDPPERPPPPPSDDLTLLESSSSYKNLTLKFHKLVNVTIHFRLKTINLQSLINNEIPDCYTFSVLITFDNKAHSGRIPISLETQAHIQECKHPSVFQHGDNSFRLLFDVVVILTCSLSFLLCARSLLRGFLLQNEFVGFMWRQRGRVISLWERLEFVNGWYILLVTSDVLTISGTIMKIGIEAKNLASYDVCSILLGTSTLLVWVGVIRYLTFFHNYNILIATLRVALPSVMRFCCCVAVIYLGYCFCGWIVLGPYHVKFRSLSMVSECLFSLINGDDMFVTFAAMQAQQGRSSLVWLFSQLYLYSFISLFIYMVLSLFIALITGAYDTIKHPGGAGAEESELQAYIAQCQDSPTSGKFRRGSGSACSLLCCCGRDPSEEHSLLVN
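Tet-induced TRPML1-DL cells loaded with Ca8 no-wash calcium dye were read kinetically on FDSS. Compound addition was followed by EC80 agonist 54-4 (4 uM final); inhibition was read over 110 s.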
TRPML1 agonist: activates the human TRPML1 channel; Q9GZU1; TRPML1-expressing cells, Ca2+ dye fluorescence, FDSS; host cell line not named in the record; reference of the full effect not given here; activation, % (concentration not given with the values); hit rate 0.12% among 410,000; in the data active = activation above about 50%; inconclusive = about 30% to 50%; inactive = below about 30%; further: 0% is about no effect; the text of the record puts the active cut at 80%
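Tetracycline-induced TRPML1-DL cells are seeded and incubated overnight before loading with a no-wash Ca2+ dye and quencher. Agonist activity is taken from the 110 s fluorescence read following compound pin-transfer on an FDSS, before EC80 54-4 challenge.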
* marks the source's active call; other numbers are inactive results; ? = inconclusive.

SMILES	TRPML1 blocker	TRPML1 agonist
CCCc1nn2c(=O)cc(COC(=O)c3ccc(NC(=O)CCc4ccccc4)cc3)nc2s1	-25	0.5
CCOC(=O)CNC(=O)Nc1cc(C(=O)NCc2ccc(C(C)C)cc2)ccc1N1CCCC1	-10	1.6
COc1cccc(CNC(=O)CN2C(=O)N(c3ccc(C)cc3C)S(=O)(=O)c3ccccc32)c1OC	2	0.1
COc1ccc(CNC(=O)c2cc3sccc3n2Cc2ccc(F)cc2)cc1	20	1.2
COc1cccc2cc(C(=O)Nc3ccc(F)c(F)c3)c(=O)oc12	-13	2.0
Cc1ccc(NC(=O)CCc2nc3cccnc3n2-c2ccccc2)cc1Cl	-8	0.5
Cc1c(C(=O)N2CCCC2)oc2c1-c1nn(CC(=O)NCc3ccccc3Br)cc1CC2	2	2.1
Cc1ccn2c(=O)c(C(=O)NC(C)c3ccccc3)c(O)nc2c1 (stereo not given)	27	-1.0
CCOC(=O)c1cccc(NC(=O)CC2C(=O)N(c3ccc(OC)cc3)C(=O)N2C2CCCC2)c1 (stereo not given)	11	0.1
COc1cc(-c2nnc(SCC(=O)N3CCCc4ccccc43)o2)cc(OC)c1OC	-2	0.2
COC(=O)c1scc(-c2ccc(C)cc2)c1S(=O)(=O)Nc1cccc(Cl)c1C	14	0.0
CCOC(=O)C(=O)Nc1c(C(=O)Nc2cccc(F)c2)oc2ccccc12	-4	0.1
Cc1c(C(=O)NCc2cccc(Cl)c2)sc2ncnc(N(C)C3CCCCC3)c12	19	0.6
CCOC(=O)c1ccc(NC(=O)c2csc3c2CCCC3)cc1	-15	1.0
Cc1ccc2[nH]c(=O)c3cc(C(=O)NC4CCC(C)CC4)sc3c2c1 (stereo not given)	-6	0.1
COc1ccc(NC(=O)c2ccc(NC(=O)N3CCSc4ncccc43)cc2)cc1	-10	-0.8
CN1CCN(CCCNC(=O)c2cnn(-c3ccccc3)c2C2CCN(C(=O)OC(C)(C)C)CC2)CC1	-1	1.5
Cc1ccc(CN(Cc2cccn2-c2nnc(N3CCCC3=O)s2)C(=O)Nc2cc(C)cc(C)c2)cc1	11	1.4
O=C(Nc1ccccc1F)C(c1ccccc1)N1Cc2ccccc2C1=O (stereo not given)	23	0.9
CCOC(=O)C1=C(CN2CCN(c3ccccc3)CC2)NC(=O)NC1c1ccc(C)cc1 (stereo not given)	57	1.9
COc1ccc(C(=O)Nc2ccc3oc(-c4cc(Cl)ccc4Cl)nc3c2)cc1Br	-4	-0.9
COc1ccc(C(=O)N2CC(=O)Nc3ccc(F)cc3C2c2ccc(F)cc2)c(OC)c1 (stereo not given)	-13	5.5
Cc1ccc(Cl)cc1N1CCN(C(=O)c2ccc3c(Cl)c4c(nc3c2)CCCC4)CC1	4	0.9
Cc1ccc(C)c(NS(=O)(=O)c2ccc3oc(=O)c4ncn(C)c4c3c2)c1	16	-0.9
COC(=O)c1cc(NC(=O)c2nn(C)c3c2CSc2ccccc2-3)cc(C(=O)OC)c1	-8	-0.3
Cc1ccccc1Cn1c(=O)n(CCCCC(=O)NCCc2ccccc2)c(=O)c2ccccc21	8	0.2
CCc1ccc(OCC2c3cc(OC)c(OC)cc3CCN2C(=O)Cc2ccc(OC)c(OC)c2)cc1 (stereo not given)	3	2.1
Cc1cccc(NC(=O)N2CCN(C)c3ncccc32)c1C	13	-0.2
Cc1ccc2c(c1)-c1nc(-c3ccc4c(c3)NC(=O)CO4)cc(-c3ccc(F)cc3)c1CO2	17	0.2
CC(C)(C)C1CCc2c(sc(NC(=O)Cn3nnc(-c4ccccc4F)n3)c2C#N)C1 (stereo not given)	-12	-0.5
COc1cc(CN(C(=O)Nc2ccccc2)c2ccccn2)cc(OC)c1OC	0	-1.3
CN(C)S(=O)(=O)N1CCC(n2cnc3cccnc32)CC1	-5	-0.7
COc1ccc(OC)c(CCNC(=O)CCn2c(=O)c3cccn3c3ccc(F)cc32)c1	17	1.5
CCC(=O)N1CCc2cc(S(=O)(=O)NCCC(=O)Nc3cccc(C)c3C)ccc21	21	0.8
CC(C)(C)c1ccc(C(=O)N2CCC(c3nc(-c4ccc(S(=O)(=O)N5CCCC5)cc4)no3)CC2)cc1	1	-0.2
CCOC(=O)c1ccc(N2C(=O)c3n[nH]c(C)c3C2c2ccc(C(C)(C)C)cc2)cc1 (stereo not given)	12	-0.2
Cc1ccc2[nH]c(CSc3nnc(C)s3)cc(=O)c2c1	-6	1.9
O=C1CN(C(=O)COc2ccc(Cl)cc2)C(c2ccc(F)cc2)c2cc(Cl)ccc2N1 (stereo not given)	30	1.3
CC(C)C(=O)NCC(c1ccc2c(c1)OCO2)N1CCN(c2ccccc2)CC1 (stereo not given)	1	1.1
Cc1ccc2occ(CC(=O)N3CCN(c4cccc(Cl)c4)CC3)c2c1	7	3.7

An excerpt from above in order of their number in TRPML1 blocker, highest first:
| SMILES | TRPML1 blocker |
| --- | --- |
| O=C(Nc1ccccc1F)C(c1ccccc1)N1Cc2ccccc2C1=O (stereo not given) | 23 |
| CCC(=O)N1CCc2cc(S(=O)(=O)NCCC(=O)Nc3cccc(C)c3C)ccc21 | 21 |
| Cc1ccccc1Cn1c(=O)n(CCCCC(=O)NCCc2ccccc2)c(=O)c2ccccc21 | 8 |
| CN1CCN(CCCNC(=O)c2cnn(-c3ccccc3)c2C2CCN(C(=O)OC(C)(C)C)CC2)CC1 | -1 |
| COc1cc(-c2nnc(SCC(=O)N3CCCc4ccccc43)o2)cc(OC)c1OC | -2 |

The results go on:
SMILES	TRPML1 blocker	TRPML1 agonist
COc1ccc(NC(=O)C2CCN(S(=O)(=O)c3cc(-c4noc(C)n4)ccc3C)CC2)cc1	10	-0.5
N#CC1=C2SCN(C3CCCCC3)CN2C(=O)CC1c1ccc(Br)cc1 (stereo not given)	7	-1.2
O=C(Nc1ccc(O)c(-c2nc3ccccc3o2)c1)c1ccc(Br)cc1	1	0.8
Cc1nn(C(=O)c2cccc(F)c2)c(C)c1S(=O)(=O)N1CCCCCC1	6	1.3
Cc1ccc(-c2noc(-c3nnn(CC(=O)Nc4ccc(C)c(Cl)c4)c3N)n2)cc1	-1	0.3
CCOc1ccc(Nc2nc(-c3cccc(Cl)c3)c3c(n2)-c2ccccc2OC3)cc1	-29	?
COc1ccc(N2CCN(C(CNS(=O)(=O)c3ccc(OC)c(C)c3)c3ccco3)CC2)cc1 (stereo not given)	20	3.2
COc1ccc(C(=O)Nc2ccc(-c3nnc4n3CCCCC4)cc2)cc1	-9	-0.5
COc1ccc(-c2onc(C)c2C)cc1S(=O)(=O)N1CCC(C)CC1	65	2.2
CC(C)c1nn2c(=O)cc(COC(=O)c3ccccc3NC(=O)c3cccc(Cl)c3)nc2s1	24	0.9
Cc1ccc(NC(=O)C2CCN(S(=O)(=O)c3c(C)noc3C)CC2)c(C)c1	-13	-1.4
Cc1cccc(C(=O)N2CCc3cc(CNS(=O)(=O)c4cccs4)ccc32)c1	-7	-0.4
COC(=O)c1cc2sccc2n1CC(=O)Nc1cc(Cl)ccc1OC	29	2.6
COc1ccccc1-c1nn2c(=O)cc(CN3CCN(S(=O)(=O)c4ccc(C)cc4)CC3)nc2s1	16	-0.2
CN1CCN(C(c2ccc(Cl)cc2Cl)c2sc3nc(-c4ccco4)nn3c2O)CC1 (stereo not given)	33	2.1
Cc1ccc(C)c(N2CCN(C(=O)Cn3ncc4ccsc4c3=O)CC2)c1	-5	1.0
COCCNC(=O)CCCn1c(SCc2ccccc2Cl)nc2c(sc3ccccc32)c1=O	-21	-0.6
CCOC(=O)c1c(Oc2ccc(OC)cc2)nnc(-c2ccccc2)c1-c1ccccc1	-8	0.2
O=C(NCCS(=O)(=O)N1CCN(c2ccc(F)cc2)CC1)C(c1ccccc1)c1ccccc1	-30	4.4
C=C1C=CS(=O)(=O)N(C(CC(C)C)C(=O)OC)C1 (stereo not given)	5	0.8

Random excerpt: two records from the list
SMILES	TRPML1 blocker	TRPML1 agonist
COc1ccc(C(=O)Nc2ccc(-c3nnc4n3CCCCC4)cc2)cc1	-9	-0.5
CCOc1ccc(Nc2nc(-c3cccc(Cl)c3)c3c(n2)-c2ccccc2OC3)cc1	-29	?

The list continues:
SMILES	TRPML1 blocker	TRPML1 agonist
COc1ccc2c(CNCc3ccc(C)o3)c(C(=O)O)n(Cc3ccccc3)c2c1	20	0.3
COc1cccc(N2CC(NC(=O)COc3ccccc3F)CC2=O)c1 (stereo not given)	6	-1.0
Cc1ccc2c(CNCc3ccc(C)o3)c(C(=O)O)n(Cc3ccccc3C)c2c1	38	2.3
Cc1ccc(N2CCn3c2nc2c3c(=O)n(C/C=C/c3ccccc3)c(=O)n2C)cc1C	2	-0.7
COc1cccc(CNCCSc2nnnn2-c2ccccc2)c1OC	0	-1.3
O=C(Cn1c(=O)oc2cc(S(=O)(=O)N3CCCCCC3)ccc21)Nc1ccc(F)cc1F	19	0.1
Cn1c(SCc2cc(=O)c3cc(Cl)ccc3[nH]2)nnc1-c1ccccc1	8	3.4
Cc1nn(-c2ccc(N3CCCC3)nn2)c(C)c1CCC(=O)N1CCN(c2ccccc2)CC1	6	-0.3
Cc1ccccc1C(=O)NC1(C(F)(F)F)N=C(c2ccccc2)N(Cc2ccccc2)C1=O (stereo not given)	-6	-1.0
O=C(NCC(c1cccnc1)N1CCc2ccccc21)c1cccc(C(F)(F)F)c1 (stereo not given)	12	2.3
COc1ccccc1N1CCN(C(=O)CCNS(=O)(=O)c2ccc3c(c2)CCN3C(=O)C2CC2)CC1	7	0.6
O=C(NCc1ccco1)c1ccc2c(c1)N(Cc1ccc(Cl)cc1)C(=O)c1ccccc1S2=O (stereo not given)	5	-0.8
CC(C)CCOc1ccc(C(=O)Nc2sc3c(c2C#N)CCCCC3)cc1	4	1.5
CCN(CC)C(=O)Cn1cc(SCC(=O)Nc2cccc(F)c2)c2ccccc21	9	0.3
O=C(Nc1ccccc1C(=O)OCc1cc(=O)n2ccsc2n1)c1ccccc1Cl	3	-0.9
CC(C)(C)C1CCc2c(sc3nnn(CCOc4ccccc4)c(=O)c23)C1 (stereo not given)	-10	1.0
O=C(NCc1ccc(F)cc1)c1ccc(NC(=O)N2CC3CCCN3c3ccccc32)cc1 (stereo not given)	-2	1.6
COc1ccc(C)c2sc(N(Cc3cccnc3)C(=O)C3CCCCC3)nc12	38	3.8
Cc1ccc(CNC(=O)Cn2c(=O)ccc3cc(S(=O)(=O)N4CCCC4)ccc32)cc1	-16	0.1
COc1ccc(CNC(=O)CC2Oc3ccc(C)cc3NC2=O)cc1 (stereo not given)	16	-0.1

Entries listed so far with bromine:
SMILES	TRPML1 blocker	TRPML1 agonist
Cc1c(C(=O)N2CCCC2)oc2c1-c1nn(CC(=O)NCc3ccccc3Br)cc1CC2	2	2.1
COc1ccc(C(=O)Nc2ccc3oc(-c4cc(Cl)ccc4Cl)nc3c2)cc1Br	-4	-0.9
N#CC1=C2SCN(C3CCCCC3)CN2C(=O)CC1c1ccc(Br)cc1 (stereo not given)	7	-1.2
O=C(Nc1ccc(O)c(-c2nc3ccccc3o2)c1)c1ccc(Br)cc1	1	0.8

Returning to the listing; the 3 compounds before the break are reprinted first.
SMILES	TRPML1 blocker	TRPML1 agonist
COc1ccc(C)c2sc(N(Cc3cccnc3)C(=O)C3CCCCC3)nc12	38	3.8
Cc1ccc(CNC(=O)Cn2c(=O)ccc3cc(S(=O)(=O)N4CCCC4)ccc32)cc1	-16	0.1
COc1ccc(CNC(=O)CC2Oc3ccc(C)cc3NC2=O)cc1 (stereo not given)	16	-0.1
Cc1ccc(CNc2nc3ccc(Cl)cc3n3nnnc23)cc1	-18	-0.1
CCOC(=O)c1c(S(=O)(=O)N2CCCC(C(=O)NCc3ccc(F)cc3)C2)c(C)n(CC)c1C (stereo not given)	-2	-0.6
O=C(COc1ccc(F)cc1)Nc1ccc(Cl)c(-c2nc3ccccc3[nH]2)c1	-24	4.9
CCn1c(SCC(=O)c2ccc([N+](=O)[O-])cc2)nnc1-c1ccc(Cl)cc1	5	4.5
O=C(NCC(c1ccc2c(c1)OCO2)N1CCN(c2ccccc2)CC1)c1ccc(F)c(F)c1 (stereo not given)	22	0.4
COc1ccc(CNC(=O)CCCN2C(=O)CSc3c2c(C)nn3-c2ccccc2)c(OC)c1	14	-0.6
Cc1ccc(S(=O)(=O)n2nc(-c3ccco3)nc2NCc2ccc(N(C)C)cc2)cc1	-3	0.3
Cc1cc(C)c2nc(N(Cc3cccnc3)C(=O)c3cccs3)sc2c1	-2	2.9
CC(C)(C)CC(=O)Nc1nnc2n1CCS2	0	0.5
COc1ccc(CCNc2nc3cc(OC)c(OC)cc3c3nc(-c4cccnc4)nn23)cc1OC	19	1.0
COC(=O)c1sc2cccc(F)c2c1S(=O)(=O)N1CCN(c2cccc(C)c2)C(C)C1 (stereo not given)	15	1.5
COc1ccccc1NC(=O)C1=C(C)Nc2nc(SCc3ccc(Cl)cc3)nn2C1c1ccccc1Cl (stereo not given)	0	0.5
CCOc1ccc(NC(=O)C2CCCN(c3nnc(C)c4c(C)n(-c5ccccc5)nc34)C2)cc1 (stereo not given)	23	2.9
C=CCC(O)[C@H](Cc1cnc2ccccc2c1)[C@H](/C=C/CCCC)c1ccccc1 (stereo not given in full)	-6	1.2
CCN(C(=O)Cn1cnc2onc(-c3ccc(F)cc3)c2c1=O)c1cc(C)ccc1C	-4	0.1

Source: PubChem BioAssay

This is a subset; rates above refer to the full screens.
